# Rce1 inh = yeast Ras-converting enzyme inhibition | Q03530 | calls only | yeast membranes, quenched prenylated peptide cleavage fluorescence | AID 2563 | 290,000 tested, 0.27% active;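 active means fall in fluorescence gain of 50% or more versus controls, with final raw signal at or below 3038400; inconclusive means same 50% fall but final raw signal above 3038400; inactive means fall in fluorescence gain under 50%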;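 further: plate controls were neutral control wells for no effect and wells lacking membranes for full effect; tested at 10 µM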
# PABP FP inh = PABP-poly(A) binding inhibition. PABP-poly(A) RNA binding, fluorescence polarization. AID 2014. 290,000 tested, 1% active. P11940. inhibition, % at 35 µM;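 active means 50% or more with normal probe brightness, or confirmed in later tests; inconclusive means above 50% with abnormal brightness, or retests that disagree; inactive means below 50% or failed in later tests; about a fifth of its hits are not listed in these tables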;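 further: calls also rest on retests at 20 µM and on dose response follow-up; controls were probe without protein and protein plus probe with vehicle; some compounds called inactive have numbers as strong as hits; many hits fall short of the cut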
# Target sequence (P11940 whole entry, looked up): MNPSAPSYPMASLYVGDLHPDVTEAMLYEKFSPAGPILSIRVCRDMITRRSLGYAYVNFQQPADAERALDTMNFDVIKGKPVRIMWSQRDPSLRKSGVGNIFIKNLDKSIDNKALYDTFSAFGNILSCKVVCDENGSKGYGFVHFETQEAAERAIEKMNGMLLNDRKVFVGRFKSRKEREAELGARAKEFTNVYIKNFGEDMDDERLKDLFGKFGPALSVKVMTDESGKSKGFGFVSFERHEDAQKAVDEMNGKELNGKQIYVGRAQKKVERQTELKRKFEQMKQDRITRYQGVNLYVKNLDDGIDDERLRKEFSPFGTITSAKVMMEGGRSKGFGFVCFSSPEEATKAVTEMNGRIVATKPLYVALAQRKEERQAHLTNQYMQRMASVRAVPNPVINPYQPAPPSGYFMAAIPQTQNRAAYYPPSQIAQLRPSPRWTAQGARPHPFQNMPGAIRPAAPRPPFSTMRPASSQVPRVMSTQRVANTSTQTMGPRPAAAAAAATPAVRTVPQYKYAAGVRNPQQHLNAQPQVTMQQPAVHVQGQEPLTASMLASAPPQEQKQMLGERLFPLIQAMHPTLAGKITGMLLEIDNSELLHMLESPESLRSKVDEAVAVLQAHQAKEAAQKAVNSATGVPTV
# UUG fidelity = modulators of start codon recognition fidelity in yeast | activity score, % at 18.7 µM | S. cerevisiae UUG-firefly luciferase reporter, luminescence/redox ratio | 350,000 tested, 0.13% active | AID 602363;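 active means replicate mean at a twofold rise or more, about +100% in these data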;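 further: firefly luciferase made from a UUG start codon reports start codon fidelity; reporter light over untreated wells divided by growth signal over untreated wells; some hits fall short of that in this replicate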
# MT1-MMP act inh = inhibitors of human MT1-MMP activation; P50281; HT1080 RFP-PRO-GFP cells, GFP/RFP ratio fluorescence, overnight; percent of plate control window, DMSO zero; 360,000 tested, 0.061% active; GFP/RFP ratio change, % at 20 µM;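 active means GFP/RFP ratio change of at least 30% with cell ATP level not reduced by more than half and red fluorescence within 50% of control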; further: strong numbers were not always called active
#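 Test system: HT1080 cells expressing an RFP-PRO-GFP fluorescent reporter construct / Compound dosing: single-point 20 µM compound, 1% DMSO / Schedule: cells overnight before dosing, compound overnight, 37 °C, 5% CO2 / Evaluation: GFP/RFP fluorescence ratio / Control set: DMSO and RFP-L50D-GFP cell wells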
# CSC inhib = cancer stem cell inhibition; inhibition, % at 7.5 µM; cancer stem cell-like cells viability, luminescence; 300,000 tested, 1.1% active;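 active means mean at 75% or more and at least half the replicates too; inconclusive means mean and replicates disagree; tested in HMLE shEcad cells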;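 further: 0% = median of negative and 100% = median of positive control wells; the first replicate is given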
# Env fusion inh = HIV envelope-mediated fusion inhibition. inhibition, % at 12.3 µM. 360,000 tested, 1.1% active. HeLa-JRFL Env/CEM21 cell fusion, luciferase;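 active means mean replicate inhibition score of at least 50 and every replicate individually at or above 50; inconclusive means only one of the two criteria met; inactive means mean below 50 and not all replicates reaching 50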;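 further: 0% = plate neutral controls and 100% = maraviroc near 300 nM; one replicate is shown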
# eIF4H inh = inhibitors of RNA binding by human eIF4H; eIF4H fluorescence polarization binding assay; inhibition, % at 35 µM; 290,000 tested, 0.94% active; AID 2012;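 active means 50% or more with normal probe brightness, or confirmed in later tests; inconclusive means above 50% with abnormal brightness, or retests that disagree; inactive means below 50% or failed in later tests; about a fifth of its hits are not listed in these tables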;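 further: calls also rest on retests at 20 µM and on dose response follow-up; 0% = protein and probe with vehicle and 100% = probe without protein; strong numbers were not always called active; many hits fall short of the cut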
# eIF4H inh retest = further read-out of eIF4H inh, marked with its call; inhibition, %; compound at 20 µM; confirmation average;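 mean of two retest wells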
# PABP FP inh retest = also measured in PABP FP inh; calls as there; inhibition, %; compound at 20 µM; confirmation repeats;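 mean of two retest wells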
# MT1-MMP act inh RFP = further read-out of MT1-MMP act inh, marked with its call; RFP signal change, %; measured here: RFP expression control read;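 0 = vehicle wells; hits needed this value within 50% of zero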
# Numbers without * were called inactive; i = inactive; u = inconclusive; x = not tested or not shown; & = joins results of further samples; [ ] = dose if it differs, or a comment.
SMILES,Rce1 inh,PABP FP inh,UUG fidelity,MT1-MMP act inh,MT1-MMP act inh RFP,CSC inhib,Env fusion inh,eIF4H inh,others
CCCC1(C(=O)OCC)NC(c2ccc(N(C)C)cc2)C2C(=O)N(c3ccc4c(c3)OCCO4)C(=O)C21 (centres undefined),i,-1.2,4.2,2.9,-0.2,-9.5,x,-4.1,
CC(C)CN(C(=O)c1ccc(N2CCCC2=O)cc1)C1CCS(=O)(=O)C1 (centres undefined),i,x,x,0.6,6.4,-16.5,-0.1,x,
Oc1c(Br)cc(Br)cc1CNc1cccc2cccnc12,i,40.2,2.0,-3.7,11.2,13.9,17.5,31.1,
CCOC(=O)c1c(C)[nH]c(C)c1C(=O)CSc1ncccn1,i,-3.2,6.0,-2.7,1.8,x,x,-3.9,
NS(=O)(=O)c1ccc(CNS(=O)(=O)c2cccc3nonc23)cc1,i,4.4,-6.4,0.5,3.3,6.2,-16.8,-5.6,
COC(=O)c1sc(=S)n(-c2ccc(Cl)cc2)c1C,i,2.1,x,0.7,3.1,-3.9,x,0.1,
Cc1cccc(-c2cnc(C(O)Cc3ccccc3)[nH]2)c1 (centres undefined),x,x,-19.6,3.5,-0.1,x,-51.1,x,
C=C1CCN([C@@H](C)C(=O)NCc2ccc(Cl)cc2)S(=O)(=O)c2ccccc21,i,1.5,-20.9,1.7,-4.4,-23.4,35.2,4.9,
CCC(C)NC(=O)CCCCCn1c(=O)[nH]c2cc(OC)c(OC)cc2c1=O (centres undefined),i,-7.8,-7.8,6.0,2.5,6.1,-23.3,-2.0,
O=[N+]([O-])c1cc(S(=O)(=O)Nc2ccccc2)ccc1NCc1cccnc1,i,0.7,-7.8,-2.4,-6.0,7.0,10.5,1.1,
C[C@@H]1CN([C@H](C)CO)C(=O)c2cc(C#CC3CC3)cnc2O[C@H]1CN(C)S(C)(=O)=O,x,x,1.0&0.1&-3.2,0.1,3.0,x,16.1&0.0[16.7 µM],x,
CN(CC(=O)Nc1ccc(F)cc1)C(=O)COC(=O)CNC(=O)c1ccc(Cl)cc1Cl,i,x,x,1.6,1.7,-4.8,-11.4,x,
C=CCOC(=O)C1=C(C)NC(=O)NC1c1ccc(Cl)cc1 (centres undefined),i,3.5,-0.6,3.1,1.7,-2.6,19.2,-16.4,
COc1ccc(CC(NC(C)=O)C(=O)NC2CCN(S(=O)(=O)c3ccc(NC(C)=O)cc3)CC2)cc1OC (centres undefined),i,-4.3,x,1.8,1.7,-14.9,22.6,-9.1,
O=C(CSc1ncnc2ccccc12)c1ccc2c(c1)OCCO2,i,-15.2,-10.3,4.6,-11.6,-22.1,x,1.9,
COc1ccccc1N(C)S(=O)(=O)c1ccc(C(=O)NCC2CCCCC2)cc1,x,x,-4.1,0.8,-5.4,-5.6,x,x,
O=C1/C(=C/c2ccccc2)SC(=S)N1C1CCS(=O)(=O)C1 (centres undefined),i,-0.9,-4.7,2.7,0.1,1.3,-9.1,-4.6,
COc1ccc(N2C(=O)c3ccccc3S2(=O)=O)cc1,i,-9.1,-16.5,8.7,-1.1,3.5,3.0,-0.5,
Cc1ccc(-n2c(SCC(=O)O)nc3sc4c(c3c2=O)C(C)CCC4)cc1 (centres undefined),i,-3.6,16.2,2.2,5.9,-3.5,-9.2,-7.4,
COc1ccc(OCC(=O)OCCNC(=O)c2cccnc2)cc1,i,0.9,x,x,x,-18.2,-2.7,3.9,
COc1ccc2c(c1)C(=O)N(c1ccccc1C)C(=O)C2(C)C,i,-8.3,x,0.1,-1.5,-3.0,15.7,-3.5,
CCOC(=O)C1=C(CSc2nc3c(cc2C#N)CN(C)CC3)OC(N)=C(C#N)C1c1ccc(Cl)cc1 (centres undefined),i,u,x,-23.4,11.9,-5.1,x,u,
Cc1ccc(-n2ncc(C(=O)NCC3CCN(C4CCCC4)C3)c2C2CCN(C(=O)OC(C)(C)C)CC2)cc1 (centres undefined),i,3.4,-4.8,-0.6,4.0,4.8,4.9,-2.0,
COC(=O)c1ccccc1NC(=O)CSc1nccn1C,i,6.8,6.4,6.9,5.9,-5.5,x,-2.6,
CCCC(C)NC(C)C(=O)NC1CCCC1 (centres undefined),i,-3.4,-14.7,-3.0,0.5,1.8,x,-12.4,

# Next section, starting with the last 6 of the part before.
SMILES,Rce1 inh,PABP FP inh,UUG fidelity,MT1-MMP act inh,MT1-MMP act inh RFP,CSC inhib,Env fusion inh,eIF4H inh,others
COc1ccc(OCC(=O)OCCNC(=O)c2cccnc2)cc1,i,0.9,x,x,x,-18.2,-2.7,3.9,
COc1ccc2c(c1)C(=O)N(c1ccccc1C)C(=O)C2(C)C,i,-8.3,x,0.1,-1.5,-3.0,15.7,-3.5,
CCOC(=O)C1=C(CSc2nc3c(cc2C#N)CN(C)CC3)OC(N)=C(C#N)C1c1ccc(Cl)cc1 (centres undefined),i,u,x,-23.4,11.9,-5.1,x,u,
Cc1ccc(-n2ncc(C(=O)NCC3CCN(C4CCCC4)C3)c2C2CCN(C(=O)OC(C)(C)C)CC2)cc1 (centres undefined),i,3.4,-4.8,-0.6,4.0,4.8,4.9,-2.0,
COC(=O)c1ccccc1NC(=O)CSc1nccn1C,i,6.8,6.4,6.9,5.9,-5.5,x,-2.6,
CCCC(C)NC(C)C(=O)NC1CCCC1 (centres undefined),i,-3.4,-14.7,-3.0,0.5,1.8,x,-12.4,
CC1CCCCN1CCCNC(=O)CCCN1C(=O)c2cccnc2Sc2ccccc21 (centres undefined),i,0.0,-24.7,-2.6,0.7,-10.6,x,7.0,
O=C1CN(C(=O)c2cc(Br)c(Br)s2)c2ccccc2N1,i,3.7,-9.7,-4.7,-5.8,-12.0,x,1.9,
COCCCn1c(C(=O)Nc2ccc3c(c2)OCO3)cc2c(=O)n3cccc(C)c3nc21,x,x,-18.2,-2.0,0.4,x,63.5*,x,
COc1cc(NC(=O)c2cccc3c2C(=O)N(C2CCCCC2)C3)cc(OC)c1OC,i,10.0,-3.1,-4.8,-8.2,8.1,40.3,26.2,
COc1ccc(N(CC(=O)NCCSc2ccccc2)S(=O)(=O)c2ccccc2)cc1,i,-10.6,-1.0,-1.8,-4.7,1.8,7.2,2.5,
CC(C)CCNC(=O)Cc1ccc(Nc2nc(=S)[nH]c3ccccc23)cc1,i,26.8,-26.3,3.3,-0.6,-8.7,12.1,-6.0,
N#Cc1c(-c2ccccc2Cl)cc(-c2ccccc2)[nH]c1=S,i,6.9,x,x,x,-9.1,x,5.9,
COc1ccccc1NC(=O)CCC(=O)OC(C)C(=O)c1ccccc1 (centres undefined),i,0.9,2.1,0.2,-0.3,-12.5,-4.9,1.3,
CC(=O)N1CCCN(Cc2cn(-c3ccc(C)cc3)nc2-c2ccc(F)cc2)CC1,i,-10.5,x,-1.1,-5.3,-7.2,4.2,-0.7,
Cc1cc(C)c(C#N)c(SCc2ccccc2)n1,i,3.6,2.1,-0.8,-4.0,x,x,14.9,
Cc1ccnc(NC(=O)Nc2ccc3c(c2)N(C)C(=O)CS3)c1,i,45.1,-6.7,-14.1,-2.8,16.8,i,4.7,
CCc1nnc(NC(=O)C2(C)COC(c3ccc(OC)cc3)OC2)s1 (centres undefined),x,-6.6,x,4.5,4.3,-4.6,-11.6,-7.4,
CC(OC(=O)CCN=C1NS(=O)(=O)c2ccccc21)C(=O)NC1CCCCC1C (centres undefined),i,x,x,0.5,4.1,-5.1,-5.6,x,
Cc1cccc(-n2cc(-c3ccccc3)c3c(NN4CCOCC4)ncnc32)c1,i,42.5,x,0.2,0.9,x,x,-6.4,
CC(C)C(=O)OC/C(O)=C(\C#N)c1nc2ccccc2[nH]1,i,10.8,-14.7,-3.2,5.5,x,0.0,61.9,eIF4H inh retest=33.6;PABP FP inh retest=17.8
Cc1ccc2c(c1)c1c(n2C)C(C(N)=O)CCC1 (centres undefined),i,-1.5,1.2,5.4,3.5,-4.9,-13.0,-0.1,
O=c1[nH]c2ccc(S(=O)(=O)NCCO)cc2[nH]1,i,-3.8,x,-0.2,5.4,-12.3,15.5,7.8,
O=C1CCCCC1c1cccc2ccccc12 (centres undefined),i,8.8,-22.3,-5.6,3.0,-7.3,1.7,-19.0,
Cc1ccc(S(=O)(=O)C(C#N)c2nc3ccccc3nc2OC(C)C)cc1 (centres undefined),i,13.9,-3.5,-4.3,-0.5,37.2,x,15.7,
O=C(COC(=O)c1cncc(Br)c1)NCCC1=CCCCC1,i,10.9,-8.7,-6.1,1.5,-12.5,8.6,-5.2,
CC[C@@]1(C(=O)OC)N[C@H](CN(C)C(=O)C2CCCCC2)[C@@H]2C(=O)N(Cc3ccccc3)C(=O)[C@@H]21,x,x,7.4,1.0,5.2,x,50.6,x,
O=C1C(CCc2ccccc2)ON=C(c2cnccn2)N1Cc1ccc(F)cc1 (centres undefined),x,x,-17.2,2.7,2.8,x,2.7,x,
CCOCCn1c(N2CCCC2)nc2c1c(=O)n(C)c(=O)n2C,i,9.9,-10.8,-2.6,-6.5,-4.0,-11.5,0.5,
O=C(Cc1c(F)cccc1Cl)N/N=C/c1cccnc1,i,-6.0,-17.9,-3.0,-0.1,-12.4,7.9,1.0,
CCOc1c(Br)cc(/C=C2\C(=O)N(CCC#N)N=C2C)cc1OC,i,-11.8,-36.7,14.8,2.8,-1.6,-116.3,-1.8,

# Structural class, the compounds so far with fluorine (4)
SMILES,Rce1 inh,PABP FP inh,UUG fidelity,MT1-MMP act inh,MT1-MMP act inh RFP,CSC inhib,Env fusion inh,eIF4H inh,others
CN(CC(=O)Nc1ccc(F)cc1)C(=O)COC(=O)CNC(=O)c1ccc(Cl)cc1Cl,i,x,x,1.6,1.7,-4.8,-11.4,x,
CC(=O)N1CCCN(Cc2cn(-c3ccc(C)cc3)nc2-c2ccc(F)cc2)CC1,i,-10.5,x,-1.1,-5.3,-7.2,4.2,-0.7,
O=C1C(CCc2ccccc2)ON=C(c2cnccn2)N1Cc1ccc(F)cc1 (centres undefined),x,x,-17.2,2.7,2.8,x,2.7,x,
O=C(Cc1c(F)cccc1Cl)N/N=C/c1cccnc1,i,-6.0,-17.9,-3.0,-0.1,-12.4,7.9,1.0,

# (cont.)
SMILES,Rce1 inh,PABP FP inh,UUG fidelity,MT1-MMP act inh,MT1-MMP act inh RFP,CSC inhib,Env fusion inh,eIF4H inh,others
O=C(CSc1nc2ccccc2n1CC(=O)N1CCCC1)N1CCN(C(=O)c2ccco2)CC1,x,3.1,-21.4,-1.1,1.4,13.0,x,-4.7,
CC(C)Cn1nc(C(=O)OCC(=O)NCC(F)(F)F)c2ccccc2c1=O,i,4.2,-17.1,1.2,-0.3,-4.5,-10.4,1.6,
CC(C)c1ccc(NC2CCCN(C(=O)CCCn3cncn3)C2)cc1 (centres undefined),i,-8.8,-24.1,1.7,-1.5,3.8,8.2,-7.2,
CCC(C)Sc1ccc(-c2nc3ccc(C)cn3c2NCc2ccccc2)cc1 (centres undefined),x,x,-29.6,2.3&9.0,-8.1&-3.7,x,u,x,
Cc1ccc(NC(=O)CSc2nccn2Cc2ccco2)cc1,i,4.0,-20.9,0.9,2.0,-8.3,-16.9,2.0,
Cn1c(N)c(C(=O)CSc2nnc(C3CC3)n2Cc2ccccc2)c(=O)[nH]c1=O,x,x,-14.0,-2.9,3.1,x,8.6,x,

# Screening data from PubChem.
